High-throughput results (PubChem)
Vaccinia pol inh: inhibitors of vaccinia virus processive DNA synthesis (E9 polymerase). in vitro processive DNA synthesis, absorbance read-out; stronger effect = lower value; some inactives read as strong as hits. normalized absorbance, % (test concentration not listed). 46,000 compounds, 0.94% hits;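 active = replicate mean up to 90% and picked by the depositor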;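 note: 100% = median of the test wells of a plate; 100 nL library stock went into each well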
Numbers without * were called inactive. Only part of the results is shown; the hit share may differ from the screen's.

SMILES | Vaccinia pol inh
Fc1cccc(CSc2ncnc3nc[nH]c23)c1 | 101
CCOC(=O)Cn1c(=O)c(C(N)=S)cn(C(C)C)c1=O | 97
COc1ccc(C2N(C(=O)c3ccccc3)CCCN2S(=O)(=O)c2ccc(C)cc2)cc1 (stereo unspecified) | 99
COC(=O)c1ccc(C(=O)NN)cc1 | 98
COC(=O)c1cccc(NC(=O)C2=NNC(=O)CC2)c1 | 102
CSc1nnc(NC(=O)C23CC4CC(CC(C4)C2)C3)s1 | 100
COc1ccc(CCNC(=O)C(Cc2ccccc2)n2cccc2)cc1OC (stereo unspecified) | 100
CC(NC(=O)c1cccc(S(=O)(=O)N(C)C)c1)C1CC2CCC1C2 (stereo unspecified) | 107
CS(=O)(=NC(=O)Nc1ccccc1)c1ccccc1 (stereo unspecified) | 94
CC1CCN(C(=O)c2ccc3nc(SCc4ccc(F)cc4)n(C)c3c2)CC1 | 105
Cc1ccc2oc(=O)c3cnn(CC(=O)n4c(C)cc5ccccc54)c3c2c1 | 104
O=C(NCc1ccccc1)c1ccc(CN2CCC(Cc3ccccc3)CC2)cc1 | 100
CCCOc1c(-c2ccc3ccccc3n2)cnc2ccccc12 | 97
Cc1cc(C(=O)OCc2ccccc2)c(C)o1 | 101
Nc1ncnc2c1ncn2C1C=CC(CO)O1 (stereo unspecified) | 101
CCC1Nc2ccccc2NC1=O (stereo unspecified) | 100
COc1ccc(C(=O)NCc2nnc(SC)n2CCc2ccccc2)cc1 | 93
CCc1cccc(NC(=O)CCCN2C(=O)COc3ccc(C)cc32)c1 | 102
CSc1ccc(CCNC(=O)c2csc3c2CCCC3)cc1 | 101
OCc1nc2ccccc2n1CCC1CCCCC1 | 90
COc1ccc(-n2nc(C(=O)NCc3cc(OC)ccc3OC)c3c4ccccc4n(C)c3c2=O)cc1 | 96
O=S1(=O)NC(=NCc2ccco2)c2ccccc21 | 104
O=C(c1c[nH]c2ccccc12)N1CCCC1 | 94
O=C1CCCN1CC#CCN1CCCC1 | 100
O=C(N/C(=C\c1ccc(-c2ccc(Cl)cc2Cl)o1)C(=O)N1CCCC1)c1ccccc1 | 100
CCN(CC)C(=O)NCc1noc2ccccc12 | 105
CC(CC(=O)O)C(=O)c1ccc(Cl)cc1 (stereo unspecified) | 97
O=C1NC(c2cccc(F)c2)=N/C1=C\C=C\c1ccccc1 | 102
O=C(O)c1c(Cl)nc2sccn12 | 99
O=C(CCC1CCCCC1)Nc1ccc(-c2cn3cccnc3n2)cc1 | 102

In a second layout: results already given.
CCOC(=O)Cn1c(=O)c(C(N)=S)cn(C(C)C)c1=O
  Vaccinia pol inh: 97
COc1ccc(C2N(C(=O)c3ccccc3)CCCN2S(=O)(=O)c2ccc(C)cc2)cc1 (stereo unspecified)
  Vaccinia pol inh: 99
COC(=O)c1ccc(C(=O)NN)cc1
  Vaccinia pol inh: 98
COC(=O)c1cccc(NC(=O)C2=NNC(=O)CC2)c1
  Vaccinia pol inh: 102

(list continues)
SMILES | Vaccinia pol inh
CC(C)Sc1nnc(NC(=O)c2ccc(F)cc2)s1 | 89
Cc1cc(C(=O)NN2C3CSC2CS3)no1 | 100
CSc1nc(N)c(C#N)s1 | 101
Cc1ccccc1N=CC=Nc1ccccc1C | 103
C=CCNC(=S)NC1(C)CCS(=O)(=O)C1 (stereo unspecified) | 100
CN(C)/C=N/C1N=C(C2CC2)N(C)C(=O)N1 (stereo unspecified) | 98
CCOC(=O)c1c(NC(=O)c2nc3ncccn3n2)sc2c1CCC(CC)C2 (stereo unspecified) | 102
CC(C)C(C(=O)O)N1C(=O)C2C3C=CC(C3)C2C1=O (stereo unspecified) | 102
CCn1c(C(=O)O)cc2oc(C)cc21 | 106
N#C[C@@H]1[C@@H](C(=O)c2ccc(F)cc2)N2C=Cc3ccccc3[C@@H]2[C@@]1(C#N)C(=O)c1ccccc1 | 99
N#CNc1nc2ccccc2nc1Cl | 98
O=C1CSC(c2cccs2)N1 (stereo unspecified) | 100
CCOC(=O)c1cc2cc(OC)ccc2oc1=O | 94
CCOC(CCn1c(=S)[nH]c2cc(C(=O)OC)ccc2c1=O)OCC | 99
CN(C)CCCNc1c2c(nc3ccccc13)CCC2 | 27*

Reprinted at random: 4 entries already listed
SMILES | Vaccinia pol inh
CCCOc1c(-c2ccc3ccccc3n2)cnc2ccccc12 | 97
CCOC(=O)c1c(NC(=O)c2nc3ncccn3n2)sc2c1CCC(CC)C2 (stereo unspecified) | 102
CC(C)Sc1nnc(NC(=O)c2ccc(F)cc2)s1 | 89
CCOC(=O)Cn1c(=O)c(C(N)=S)cn(C(C)C)c1=O | 97

Additional compounds follow:
SMILES | Vaccinia pol inh
COc1cccc(Cn2c(SCc3ccc(C(=O)NCc4ccccn4)cc3)nc3ccncc32)c1 | 109
COC(=O)c1cc(=O)n2c(nc3ccccc32)s1 | 100
Cc1nn2c(c1-c1cccc(Cl)c1)NCN(Cc1ccc(Cl)cc1)C2 | 95
CCOC(=O)c1c(C)n(C(C)C)c2ccc(OC(=O)c3ccccc3)cc12 | 100
O=c1[nH]c2ccccc2c(O)c1-c1nc2ccccc2s1 | 95
COc1ccc(C(=O)Cn2ccnc2C(=O)NCCc2ccc(Cl)cc2)cc1 | 101
Cc1c2c(=O)[nH]ncc2c(-c2ccccc2)n1CCSCc1c(F)cccc1Cl | 98
CC(C)CC(=O)N[C@H](C(=O)N[C@H](C(=O)N[C@@H](CC(C)C)[C@@H](O)CC(=O)N[C@@H](C)C(=O)N[C@@H](CC(C)C)[C@@H](O)CC(=O)O)C(C)C)C(C)C | 99
COc1ccccc1C(=O)Nc1ccc(-c2cn3ccccc3n2)cc1 | 97
COC(=O)c1c(C)nn(-c2ccc(OC(F)(F)F)cc2)c1-c1snnc1C | 101
N#C[C@@H]1O[C@H](COC(=O)c2ccccc2)[C@@H](OC(=O)c2ccccc2)[C@H]1OC(=O)c1ccccc1 | 103
CN1CCN(C(=O)COc2cc(=O)n(C)c3ccccc23)CC1 | 85
COc1ccccc1NS(=O)(=O)c1cccs1 | 96
O=C(Nc1ccc(-n2ccnc2P(=O)(O)c2ccccc2)cc1)c1ccccc1Cl | 100
C=CCN1C(=O)/C(=C\c2ccccc2F)S/C1=N\c1nnc(C)s1 | 101
CSc1ncccc1C(=O)Nc1ccccc1C | 95
c1ccc(CN2CCCN(Cc3ccccc3)C2c2ccncc2)cc1 | 94
c1ccc(CCNCc2cn[nH]c2-c2cccs2)cc1 | 92
O=S(=O)(Nc1ccc2c(c1)OCCO2)c1csc(-c2cc(C(F)(F)F)on2)c1 | 101
NCCC(Cc1ccccc1)c1ccc2c(c1)OCO2 (stereo unspecified) | 101
O=C(O)CCS(=O)(=O)c1ccccc1 | 102
Cc1cc2c(cc1S(=O)(=O)N(C)Cc1ccccc1)OCCN2C | 102
CCc1cccc(NC(=O)c2sc(-n3cccc3)nc2C)c1 | 94
COc1ccc(NC(=S)N(Cc2ccccc2)Cc2cccn2Cc2ccc(C)cc2C)cc1OC | 110
CC1Cn2c(C(=O)NCc3ccccc3)cc3c(Cl)ccc(c32)O1 (stereo unspecified) | 98
CCC(=O)c1nc2ccccc2c(=O)n1-c1ccccc1C | 102
CCC1CCCCN1C(=O)Cn1c(=O)n(Cc2ccccc2Cl)c(=O)c2cc(OC)c(OC)cc21 (stereo unspecified) | 105
CCOC(=O)N1CCC(NC(=O)C2CCCN(c3ncnc4c3sc3cccc(F)c34)C2)CC1 (stereo unspecified) | 99
CCCC(=O)Nc1cccc(N)c1 | 101
CN1C(=O)c2ccccc2Sc2ccc(NC(=O)N3CCCC3)cc21 | 92
O=C(NS(=O)(=O)c1ccc2c(c1)OCCO2)c1ccccc1 | 95
CNC(=O)CN(Cc1ccccc1)S(=O)(=O)c1ccc(Cl)cc1 | 100
Cc1cc(-c2cccs2)c2c(N)c(C(=O)c3ccccc3)sc2n1 | 97
COc1ccc(NC(=O)Cc2nn(C)c(=O)c3ccccc23)cc1 | 112
CN(C)c1ccc(C2=NCCCN2)c(SCc2cccc(C(F)(F)F)c2)c1 | 109
CC1=C(C(=O)Nc2ccccc2C)Sc2ccccc2N1 | 97
O=C(Nc1ccccc1F)OCC1CCCN2CCCCC12 (stereo unspecified) | 101
Cc1cccc(Cl)c1NC(=O)N1CCCN(c2ncccc2C(F)(F)F)CC1 | 106
C=CC[N+]1(CC#Cc2ccccc2)CCOCC1 | 100
O=C(Nc1ccc(Cc2ccncc2)cc1)c1cc2ccccn2n1 | 101
NC(=O)C1CCN(C(=O)c2cn(-c3ccccc3)nc2-c2cccs2)CC1 | 100
O=C(Cn1c(SCc2ccc(F)cc2)nc2cccnc21)N1CCCc2ccccc21 | 87
CCCCn1c(-c2ccc(Br)cc2)nc2ccccc21 | 102
Cc1ccc(Cl)cc1N1CCN(CCCNc2nc3ccccc3n3c(C)nnc23)CC1 | 102
CCCCC1CCC(C(=O)Nc2c3c(nn2C(C)(C)C)CS(=O)(=O)C3)CC1 (stereo unspecified) | 101
c1ccc(CNc2ccc3c(ccc4c5ccccc5[nH]c34)n2)cc1 | 54*
COc1ccc(-c2noc(N(C)c3ccccc3)n2)cc1 | 99
CCOc1ccc(C2C3=C(CCCC3=O)Nc3ncnn32)cc1 (stereo unspecified) | 98
CCC(=O)Nc1c(C#N)c2nc3ccccc3nc2n1Cc1ccccc1 | 101
Cc1cc(C)cc(NC2=NC3CS(=O)(=O)CC3S2)c1 (stereo unspecified) | 106
CCCn1c(CNC(=O)c2cccc(C)c2)nc2ccccc21 | 99
COc1ccc(/C=N/n2cn[nH]c2=S)cc1OC | 100
COc1ccc(-c2nc3c(c(SCC(N)=O)n2)Cc2ccccc2O3)cc1 | 104
CCOC(=O)c1cc(-c2ccccc2)n(CCC(=O)N2CCCCCC2)c1C | 92
CCC(Sc1nc2nccnc2c(=O)n1Cc1ccc2c(c1)OCO2)C(=O)NC1CCCCC1 (stereo unspecified) | 110
O=C(NC(Cc1ccccc1)C(=O)O)c1ccc(Cl)c(Cl)c1 (stereo unspecified) | 92
Cn1c(=O)c2[nH]c(-c3ccc(Cl)cc3)c(O)c2n(C)c1=O | 99
Cc1cc(C)cc(NC(=O)CSc2nnc(NC(=O)C(C)C)s2)c1 | 102
CC(C)(C)c1cc(C(=O)NN)no1 | 100
CS(=O)(=NS(=O)(=O)c1ccccc1C(F)(F)F)c1ccc(Cl)cc1 (stereo unspecified) | 93

Rewritten as comma-separated lines: entries from further up.
mol,Vaccinia pol inh
COC(=O)c1c(C)nn(-c2ccc(OC(F)(F)F)cc2)c1-c1snnc1C,101
N#C[C@@H]1O[C@H](COC(=O)c2ccccc2)[C@@H](OC(=O)c2ccccc2)[C@H]1OC(=O)c1ccccc1,103
CN1CCN(C(=O)COc2cc(=O)n(C)c3ccccc23)CC1,85
COc1ccccc1NS(=O)(=O)c1cccs1,96
O=C(Nc1ccc(-n2ccnc2P(=O)(O)c2ccccc2)cc1)c1ccccc1Cl,100
C=CCN1C(=O)/C(=C\c2ccccc2F)S/C1=N\c1nnc(C)s1,101

Following part
SMILES | Vaccinia pol inh
CC1(C)CN=C(NC2CCCCC2)S1 | 76
COC(=O)c1cccc(C(=O)Nc2cnc3ccccc3c2)n1 | 99
O=C(Nc1ccccc1C(=O)O)c1cc(S(=O)(=O)N2CCCC2)ccc1Cl | 99
CS(=O)(=O)NCCc1ccccc1 | 100
COc1cc(C2SCCS2)cc(Br)c1OC(=O)NC(=O)c1c(F)cccc1F | 87
FC(F)(F)Oc1ccc(-c2nnc(-c3cccnc3)o2)cc1 | 100
O=C(CSc1nc(-c2ccccc2)nc2c1CCCC2)N1CCCCC1 | 110
Cc1cc(SCc2ccccc2)nc2ccccc12 | 91
CCC(C)NC(=O)c1cc(-c2ccccn2)nc2ccccc12 (stereo unspecified) | 97
Cc1cc2ncn(C(=O)CCCOc3ccccc3)c2cc1C | 100
O=C(O)c1cc2cccc(S(=O)(=O)N3CCCCCC3)c2cc1O | 100
Cc1c(C)n(CCN(C)C)c2ccc(C(=O)OCCN(C)C)cc12 | 62*
CC1C(=O)C(C)C(c2ccc(N(C)C)cc2)NC1c1ccc(N(C)C)cc1 (stereo unspecified) | 100
Cc1ccc(Cc2cc(C)n[nH]c2=O)cc1 | 91
CCc1ccc(N2C(=O)c3ccncc3C2=O)cc1 | 106
Cn1ccc(/C=C2/CCC/C(=C\c3ccn(C)n3)C2=O)n1 | 101
Cc1oc(-n2c(C)ccc2C)c(C#N)c1C | 104
CS(=O)(=NS(=O)(=O)c1ccc(OC(F)(F)F)cc1)c1ccc(Cl)cc1 (stereo unspecified) | 100
O=C(CSc1nc2ncccc2[nH]1)N1CCCC1 | 113
Cc1cc(O)c2c(=O)c(-c3cscn3)c(C)oc2c1 | 104
CC1CC(=O)c2cnc(Nc3ccccc3)nc2C1 (stereo unspecified) | 106
Nc1ccc(-c2ncc(-c3ccccc3)o2)cc1 | 99
Cc1onc(-c2ccccc2)c1CNC(=O)Nc1ccccc1 | 102
Cn1ccnc1SCC(=O)NCc1ccccc1 | 104
O=C(Nc1ccc(F)cc1)c1cnccc1C(F)(F)F | 91
COc1ccc(CCNC(=O)c2cc(-c3ccccn3)nc3ccccc23)cc1 | 101
COc1ccc(/C=C\C(=O)NCc2ccc3[nH]c(C)cc3c2)cc1OC | 101
N#CCS(=O)(=O)c1cc(Cl)ccc1Cl | 98
Cc1ccccc1OCCCn1cc(C(=O)C2CC2)c2ccccc21 | 112
CC(C)(C)C(=O)CC(Nc1ccccc1)c1ccc(Cl)cc1 (stereo unspecified) | 102
N#Cc1c2c(c(N3CCCC3)[nH]c1=S)CCCC2 | 100
Cc1ccc(Nc2cc(C(=O)NCCCN3CCOCC3)c3ccccc3n2)c(C)c1 | 101
CCCCN(C)S(=O)(=O)c1ccc2oc(C(=O)O)c(C)c2c1 | 101
COc1ccc(C(=O)N2CCN(S(=O)(=O)c3ccccc3)CC2)cc1OC | 94
Cc1cccc(C(=O)Nc2sc(C)c(C)c2C#N)c1 | 100
Cc1cc(NC(=O)c2ccc3nonc3c2)on1 | 106
